Beta apoptosis: beta cell apoptosis inhibition; INS-1E cytokine-induced death, ATP luminescence, 48 h; percent of positive-control rescue, neutral wells zero; protection from apoptosis, % (test concentration not listed); 0.8% of 300,000 active;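 active = all replicates at 75% or more, or half of them and the mean; inconclusive = half reach 75% but not the mean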;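 also: 0% = cytokine-treated negative control wells and 100% = positive control rescue; higher means more ATP so stronger rescue from cytokine killing; wells of about 40 µL received 100 nL stock; the first replicate is given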
Calb FLC: affects C. albicans growth with fluconazole | AID 1979 | C. albicans CaCi-2 (fluconazole-resistant clinical isolate) + fluconazole, Alamar Blue growth, 48 h | growth inhibition, % (concentration not given with the values) | 0.57% of 300,000 active;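 active = most replicates above 75%; inconclusive = exactly half above 75%; inactive = most below 75%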;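 also: all wells also contain fluconazole at 8 µg/ml as a sub-toxic cotreatment; 0% = median of DMSO wells and 100% = median of geldanamycin control wells; wells of about 8 µL received 7.5 nL stock; the first replicate is given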
T cruzi repl: blocks replication of Trypanosoma cruzi. T. cruzi beta-gal in NIH3T3, luminescence, 90 h. inhibition, % (no concentration beside the values). 1.4% of 300,000 active;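 active = mean inhibition across valid replicates above about 55%, limit read from the data; inconclusive = mean below that limit but half or more replicates reach it; inactive = mean below it, under half of replicates reach it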;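 also: signal also drops with host cell toxicity which is not excluded here; 0% = plate median of DMSO wells and 100% = zero luminescence signal; higher percent means less beta-gal luminescence so fewer parasites; stock transfer was 50 nL into about 50 µL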
RanGTP-Impb inh: inhibitors of RanGTP-importin-beta interaction, primary screen, biochemical, FRET, CFP-Ran, YFP-importin-beta, homogeneous; cell-free CFP-Ran/YFP-importin-beta FRET ratio; inhibition, % (no concentration beside the values); 1.1% of 300,000 active;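 active = most replicates above 15%; inconclusive = exactly half above 15%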;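 also: 0% = DMSO wells and 100% = Ran loaded with GDP instead of GTP; wells of about 40 µL received 100 nL stock; the first replicate is given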
Vif TR-FRET: HIV-1 Vif–A3G interaction blockers – biochemical, TR-FRET, GST-Vif 1-94, biotin-A3G peptide, dose response retest, primary screen (AID 1117319); TR-FRET GST-Vif / biotin-A3G peptide binding; higher % means a stronger effect; test concentration not given here; strong numbers were not always called active; inhibition, %; hits with a dose series show IC50 in µM; 0.57% of 260,000 active;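 active = above the screen mean plus three standard deviations and confirmed in dose response; inconclusive = results disagree or hit not tested in dose response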;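 also: Vif residues 1-94 fused to GST binding biotinylated APOBEC3G peptide 110-148; 0% = full assay without inhibitor and 100% = GST in place of GST-Vif; retest series ran down from 100 µM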
MLL AF4-AF9 inh: blocks AF4 peptide binding to human AF9; AlphaScreen, biotin-AF4 peptide binding to FLAG-AF9; inhibition, % at 10 µM; 0.47% of 350,000 active;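 active = every replicate reaching a set inhibition limit, whatever the replicate mean, cut at about 25% in these data; inconclusive = mean inhibition reaches that limit but some replicates miss it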;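 also: 0% = plate neutral control median and 100% = total signal loss; the record names both 10 and 1 µM as test concentration; the first replicate is given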
Target sequence (P42568 whole entry, looked up): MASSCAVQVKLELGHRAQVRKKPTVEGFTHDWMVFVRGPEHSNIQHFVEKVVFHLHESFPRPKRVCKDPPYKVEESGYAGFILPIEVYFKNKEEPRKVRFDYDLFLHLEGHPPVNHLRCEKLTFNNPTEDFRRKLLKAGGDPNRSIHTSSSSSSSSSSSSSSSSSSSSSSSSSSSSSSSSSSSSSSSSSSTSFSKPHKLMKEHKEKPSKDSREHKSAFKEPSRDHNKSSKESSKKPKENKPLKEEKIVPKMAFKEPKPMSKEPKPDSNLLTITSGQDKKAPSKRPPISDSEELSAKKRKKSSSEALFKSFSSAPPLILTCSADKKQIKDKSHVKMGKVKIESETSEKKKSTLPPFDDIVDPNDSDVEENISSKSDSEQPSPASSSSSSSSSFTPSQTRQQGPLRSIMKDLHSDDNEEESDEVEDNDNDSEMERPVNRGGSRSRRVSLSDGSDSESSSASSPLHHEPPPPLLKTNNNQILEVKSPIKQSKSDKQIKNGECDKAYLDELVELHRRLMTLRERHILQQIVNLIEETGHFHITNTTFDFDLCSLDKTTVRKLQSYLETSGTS
LANA-H2A inh: blocks KSHV LANA binding to histone H2A/H2B. Q9QR71. cell-free LANA-H2A/H2B peptide, fluorescence polarization. inhibition, % (no concentration beside the values). 0.6% of 320,000 active. AID 2629; in the data active = inhibition mostly above about 10%, no sharp cut-off; inactive = mostly below about 6.7%;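 also: stock transfer was 7.5 nL into about 10 µL; 0% = median of vehicle wells and 100% = median of positive control wells; one replicate is shown; the record names a cut of 25% in any replicate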
Bfl-1 A1 inh: inhibitors of the anti-apoptotic protein A1, read as caspase activation; MEF A1-2A-BIM cells, Caspase-Glo 3/7 luminescence, 3 h; percent of clofoctol response, vehicle zero; caspase activation, % (no concentration beside the values); 0.066% of 330,000 active; AID 2462;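 active = over half of replicate activation scores above 10%, or exactly half above 10 with the replicate mean above 10; inconclusive = replicate mean below 10 yet half the replicates above 10; inactive = over half of replicates below 10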;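 also: wells of about 30 µL received 50 nL stock; many hits fall short of the cut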
The depositor's hits bear a star; ? = inconclusive; · = no result given; ! = a repeat was not active. These rows are one share of the data; count on the stated rates, not on these rows.

SMILES	Beta apoptosis	Calb FLC	T cruzi repl	RanGTP-Impb inh	Vif TR-FRET	MLL AF4-AF9 inh	LANA-H2A inh	Bfl-1 A1 inh
COc1ccc2[nH]cc(CCN)c2c1	3	·	·	·	0%	18	3.3	0.6
COc1ccccc1NC(=O)c1cn(CCC#N)nc1-c1cccc(Cl)c1	1	-1	6	-0.8	·	-0.5	-0.9	-0.2
CC(Cc1cccs1)NCc1ccc(Cl)cc1 (centres undefined)	6	12	-15	1.0	-2%	-2.3	3.5	-0.6
C[N+]1(C)[C@@H]2CC[C@H]1CC(OC(=O)C(CO)c1ccccc1)C2 (some centres undefined)	3	·	-1	4.5	?	-3.3	37*!	0.7
CC1CC(OP(O)(=S)c2ccc(N(C)C)cc2NC(=O)c2cccs2)CC(C)(C)C1 (centres undefined)	-2	70	-1	-2.2	-3%	7.3	5.3	-0.6
CCN(CC)C(=O)c1ccc(NC(=O)Cn2nc(C)c3ccccc3c2=O)cc1	-1	-2	28	1.0	72%	·	3.1	2.2
CNC(=S)N1CCn2cccc2C1c1cccnc1 (centres undefined)	0	-4	36	-5.4	2%	0.5	-4.9	0.2
COc1ccc(CNCCc2ccc(Cl)cc2)c(OC)c1OC	4	-2	64*	2.2	·	2.0	3.7	1.2
C#CC1(O)C=CC2C3CCC4=CC(=O)CCC4C3CCC21CC (centres undefined)	2	-3	5	?	1%	-1.4	-2.6	0.3
O=C(NC1CONC1=O)OCC(Cl)(Cl)Cl (centres undefined)	41	-4	-1	-4.4	-6%	-0.3	-0.1	-7.5
COC(=O)C1=C(c2ccc(F)cc2OCc2ccccc2)C[C@@H]2CC[C@H]1N2C(=O)NCc1ccc(OC)cc1	-8	·	·	·	·	-0.5	-0.4	1.3
CC(=NCCc1c[nH]c2ccccc12)c1c(O)n(Cc2ccccc2)c(=O)[nH]c1=O	13	10	7	3.1	13%	1.0	0.8	0.1
COc1ccc(N2C(=O)/C(=C/c3cccs3)C(=O)NC2=S)cc1	-5	-3	-6	7.6	?	-1.7	-2.0	-0.3
CC1CCCCC1NC1CCN(C)CC1 (centres undefined)	-14	-6	-16	5.3	11%	8.4	7.3	-0.7
CCCCCCC(=O)c1c(O)n(-c2ccccc2OC)c(=O)[nH]c1=O (tested in a mixture with another compound)	·	-3	-2	1.4	1%	-2.1	4.4	0.7
CC(=O)c1ccc(OC(NC(=O)Cc2ccccc2)C(Cl)(Cl)Cl)cc1 (centres undefined)	0	-6	-9	-0.8	-2%	·	-0.7	0.7
CN1CCN(C(=O)COc2ccc(S(=O)(=O)N(C)Cc3ccccc3)cc2)CC1	0	-30	61*	?	?	1.1	-0.8	0.4
CCOC(=O)c1ccc(NC(=O)N2CC3CC(C2)c2cccc(=O)n2C3)cc1 (centres undefined)	3	0	-20	0.8	3%	-11	-2.6	0.9
COCCCn1c(N)c(C(=O)NCc2ccco2)c2nc3ccccc3nc21	·	-4	29	58*	?	-3.3	-3.8	0.3
CCOC(=O)c1ccc(N=Cc2c(O)n(-c3ccccc3F)c(=S)[nH]c2=O)cc1	2	-3	-5	-0.1	-2%	-4.8	1.8	0.9
COC(=O)C1=C(c2ccc(OCc3ccccc3)cc2)C[C@@H]2CC[C@H]1N2C(=O)NCCCc1ccccc1	12	·	·	·	·	0.4	1.5	0.7
CCCCn1c(O)c(C(CC)=Nc2ccc(C(=O)O)cc2)c(=O)[nH]c1=O	-6	0	-9	1.3	12%	·	-9.6	0.1
CCNC(=S)NCCC1=c2ccccc2=N/C1=C\c1c(O)n(C)c(=O)n(C)c1=O	-5	-5	-4	-1.1	2%	1.6	1.1	0.4
CC(Cc1ccsc1)NCc1cn[nH]c1-c1ccc(F)cc1F (centres undefined)	-11	-19	-13	4.3	-3%	-18	0.6	-0.2
COc1cc(OC)c(OC)cc1/C=C1/C(=O)NC(=O)N(Cc2ccccc2)C1=O	-3	-1	-1	0.8	22%	·	4.1	0.0
SMILES	Beta apoptosis	Calb FLC	T cruzi repl	RanGTP-Impb inh	Vif TR-FRET	MLL AF4-AF9 inh	LANA-H2A inh	Bfl-1 A1 inh
CN(C)C(=O)Oc1ccc2c(c1)O/C(=C\c1ccccc1)C2=O	-6	-3	20	-1.2	-7%	-3.7	-3.2	-8.1
N#CC1(c2ccccc2)CCN(C2CC(=O)N(c3ccc(F)cc3)C2=O)CC1 (centres undefined)	-4	-7	-10	1.5	-16%	·	-0.8	-0.5
CCCCCCC(=O)c1c(O)n(-c2ccccc2OC)c(=O)[nH]c1=O	-7	-12	-7	-0.8	·	·	-0.1	-0.6
CNC(=O)O/N=C(\C)Cc1nnn(-c2cc(C)on2)n1	-4	-14	-4	0.5	1%	-0.1	-0.5	0.2
COc1cccc(CN2CC=C(c3ccc(F)cc3)CC2)c1	3	-6	14	2.1	·	1.9	-7.9	0.3
C1=CC(Cc2cncs2)c2ccccc21 (centres undefined)	-6	·	·	·	·	-10	-3.5	1.0
O=C(c1cc2cc3ccc(Cl)cc3nc2o1)N1CCC2(CC1)OCCO2	-10	2	8	0.7	-7%	·	3.9	-0.6

Not a retest: entries from further up.
SMILES	Beta apoptosis	Calb FLC	T cruzi repl	RanGTP-Impb inh	Vif TR-FRET	MLL AF4-AF9 inh	LANA-H2A inh	Bfl-1 A1 inh
C1=CC(Cc2cncs2)c2ccccc21 (centres undefined)	-6	·	·	·	·	-10	-3.5	1.0
O=C(c1cc2cc3ccc(Cl)cc3nc2o1)N1CCC2(CC1)OCCO2	-10	2	8	0.7	-7%	·	3.9	-0.6

Arranged by length of the SMILES (largest number first): some entries from above.
SMILES	Beta apoptosis	Calb FLC	T cruzi repl	RanGTP-Impb inh	Vif TR-FRET	MLL AF4-AF9 inh	LANA-H2A inh	Bfl-1 A1 inh
N#CC1(c2ccccc2)CCN(C2CC(=O)N(c3ccc(F)cc3)C2=O)CC1 (centres undefined)	-4	-7	-10	1.5	-16%	·	-0.8	-0.5
CCCCCCC(=O)c1c(O)n(-c2ccccc2OC)c(=O)[nH]c1=O	-7	-12	-7	-0.8	·	·	-0.1	-0.6
CN(C)C(=O)Oc1ccc2c(c1)O/C(=C\c1ccccc1)C2=O	-6	-3	20	-1.2	-7%	-3.7	-3.2	-8.1
CNC(=O)O/N=C(\C)Cc1nnn(-c2cc(C)on2)n1	-4	-14	-4	0.5	1%	-0.1	-0.5	0.2
COc1cccc(CN2CC=C(c3ccc(F)cc3)CC2)c1	3	-6	14	2.1	·	1.9	-7.9	0.3
